Screening results: PubChem, National Center for Advancing Translational Sciences (NCATS)
Cruzain inh Det = blocks cruzain activity in presence of Triton detergent | P25779 | purified cruzain, Z-FR-AMC fluorescence, 0.01% Triton | Potency, µM, without a hit: max response, negative = inhibition, most hits filed as inhibitors | hit rate 0.43% among 200,000 | AID 1478; active means well fitted curve in the direction sought with a large enough effect; inconclusive means small, poorly fitted or top-dose-only effect, or another doubt; inactive means no such curve, though single readings can be large; an effect the other way counts as inactive or inconclusive;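 further: plate controls were neutral wells for no effect and buffer without enzyme for full effect; nearly all actives have a fitted effect of over 40% in size; top concentration of the series not given in the record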
Target sequence (P25779 123-467 limits assumed): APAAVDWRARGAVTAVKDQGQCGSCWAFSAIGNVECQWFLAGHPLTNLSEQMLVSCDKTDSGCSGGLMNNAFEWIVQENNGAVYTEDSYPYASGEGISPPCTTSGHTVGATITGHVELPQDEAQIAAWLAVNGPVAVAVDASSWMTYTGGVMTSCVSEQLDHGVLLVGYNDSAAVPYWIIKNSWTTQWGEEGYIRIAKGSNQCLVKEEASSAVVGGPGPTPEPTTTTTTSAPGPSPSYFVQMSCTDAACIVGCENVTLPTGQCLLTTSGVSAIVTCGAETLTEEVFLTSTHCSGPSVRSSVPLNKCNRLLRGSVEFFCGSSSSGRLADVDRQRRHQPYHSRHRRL
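Sodium acetate buffer (100 mM, pH 5.5) containing 5 mM DTT and 0.01% Triton X-100 hosted 1.5 nM cruzain and test compound for 15 min at room temperature. Cleavage of 2 uM Z-FR-AMC was then tracked by fluorescence.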
StopGo reporter = lowers the luciferase signal of an FMDV 2A StopGo reporter; human cells with a luciferase reporter of 2A StopGo recoding; control for the full effect not named in the record; Potency, µM (top dose mostly 57.9 µM), without a hit: at the top dose signal change, negative = less light; hit rate 1.2% among 410,000; AID 1159524; active = well fitted falling curve with a large enough effect; inconclusive = small, poorly fitted or top-dose-only effect; inactive = no such curve, though single readings can be large or run the other way; tested in HEK293T cells; further: on the % scale 0 is the no-effect control and ±100 the full control effect; nearly all actives have a fitted effect of over 45% in size; luciferase light after 4 h
SARS PLP yeast = SARS-CoV PLP inhibition in yeast. Potency, µM (doses to about 32.9 µM), inactives show at the top dose activity, positive = growth rescue. S. cerevisiae expressing SARS-CoV PLpro, growth rescue; control for the full effect not named in the record. hit rate 0.19% among 330,000; further: 0% is about no effect; nearly all actives have a fitted effect of over 55% in size; growth read by luminescence after 48 h
Cruzain inh noDet = blocks cruzain activity in detergent-free assay; purified cruzain, Z-FR-AMC fluorescence, no detergent; hit rate 2.3% among 200,000; Potency, µM, without a hit: max response, negative = inhibition, actives largely listed as inhibitors; AID 1476; active means well fitted curve in the direction sought with a large enough effect; inconclusive means small, poorly fitted or top-dose-only effect, or another doubt; inactive means no such curve, though single readings can be large; an effect the other way counts as inactive or inconclusive;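 further: plate controls were enzyme without inhibitor for no effect and buffer without enzyme for full effect; nearly all actives have a fitted effect of over 40% in size; top concentration of the series not given in the record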
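Detergent-free condition (0.00005% Triton X-100) in acetate buffer pH 5.5 with DTT. 1.5 nM enzyme and compound were pre-mixed 15 min, then 2 uM Z-FR-AMC substrate added; reaction progress from fluorescence change between first and third reads (60 s).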
RE007 growth inh = less growth of the S. pombe RE007 Vpr strain; AID 651644; Potency, µM (titrated, usually from 92.2 µM), without a hit: at the top dose activity change, negative = less growth; hit rate 0.21% among 360,000; S. pombe RE007 Vpr strain, BacTiter-Glo ATP luminescence, 24 h; control for the full effect not named in the record; active = well fitted falling curve with a large enough effect; inconclusive = small, poorly fitted or top-dose-only effect; inactive = no such curve, though single readings can be large or run the other way;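 further: on the % scale 0 is the no-effect control and ±100 the full control effect; nearly all actives have a fitted effect of over 50% in size; the assay follows cell death caused by Vpr and the record does not say whether a fall means rescue or toxicity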
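Fission yeast strain RE007, carrying one chromosomally integrated HIV-1 vpr copy, was seeded at OD 0.01 in PMG+AL medium with 23 nL pinned compound. After 24 h at 30 °C and 99% humidity, viability was read by BacTiter-Glo luminescence.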
Lassa entry inh = inhibitors of Lassa virus binding or cell entry | Lassa virus pseudotype entry inhibition, cell reporter; control for the full effect not named in the record | Potency, µM (highest dose often 37.9 µM), for the others: at the top dose activity change, negative = inhibition, hits mostly inhibitors | hit rate 1.2% among 300,000; active means well fitted inhibition curve with a large enough effect; inconclusive means small, poorly fitted or top-dose-only effect, or effect the other way; inactive means flat fitted curve, though single readings scatter; tested in HEK293 cells; further: on the % scale 0 is the no-effect control and ±100 the full control effect; nearly all actives have a fitted effect of over 50% in size; luciferase read-out
NS1 inh = blocks influenza NS1 protein function; S. cerevisiae slowed by influenza A NS1, growth recovery by OD600; Potency, µM (series often up to 46.1 µM), for inactives: at the highest dose activity, positive = more growth; hit rate 0.4% among 270,000; AID 2326; further: actives are rising curves; nearly all actives have a fitted effect of over 50% in size
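A cell-based growth assay was used: compounds that relieve NS1-induced slow growth of budding yeast raise OD600. Assay medium was yeast nitrogen base with ammonium sulphate and -URA supplement, pH 6.0, with 2% galactose.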
MARV entry inh = inhibitors of Marburg virus binding or cell entry. hit rate 1.8% among 300,000. Marburg virus pseudotyped entry inhibition, cell reporter; control for the full effect not named in the record; about a third of the inactives were read at about 46 µM. Potency, µM (series often up to 37.8 µM), for inactives: at the top dose activity change, negative = inhibition, usual class: inhibitors; active = well fitted inhibition curve with a large enough effect; inconclusive = small, poorly fitted or top-dose-only effect, or effect the other way; inactive = flat fitted curve, though single readings scatter; tested in HEK293 cells; about a fifth of its hits are not listed in these tables; further: on the % scale 0 is the no-effect control and ±100 the full control effect; luciferase read-out
Starred values were filed as active, the others as inactive; [ ] = another dose, or the depositor's remark. Unless noted, the call rests on the fitted dose curve; in most records, active means well fitted rising curve with a large enough effect; inconclusive means small, poorly fitted or top-dose-only effect; inactive means no such curve, though single readings can be large or run the other way. Potency means the concentration at half of the fitted maximal effect.

For CC1CCN(c2nnc(-c3ccccc3)c3ccccc23)CC1 the results were StopGo reporter -18%, SARS PLP yeast -6%, RE007 growth inh -10%, Lassa entry inh -6%, NS1 inh -39% and MARV entry inh inconclusive.
Screening FC(F)(Cl)c1nnc2ccc(Sc3ccccn3)nn12 returned StopGo reporter -8%, SARS PLP yeast -1%, RE007 growth inh 2%, Lassa entry inh 9%[46.1 µM] and MARV entry inh 14%[46.1 µM].
CC(C)c1ccc(/C=N/NC(=O)c2nnn(-c3nonc3N)c2CN2CCOCC2)cc1 was read as StopGo reporter -23%, SARS PLP yeast 6%, RE007 growth inh -12% and NS1 inh 4%.
Cc1ccc(Cl)cc1NC(=O)c1ccccc1OCC(=O)N1CCOCC1 was read as StopGo reporter -2%, SARS PLP yeast -1%, RE007 growth inh 8% and NS1 inh -11%.
For COc1ccccc1N1CCN(CC(=O)Nc2ccc(CN3CCCCC3)cc2)CC1 the results were Cruzain inh Det 2.6%, SARS PLP yeast -1%, Cruzain inh noDet -2%, RE007 growth inh -11%, Lassa entry inh 0%, NS1 inh -2% and MARV entry inh inconclusive.
Screening COCCNC(=O)c1c(NC(=O)c2nc(SC)ncc2Cl)sc2c1CCCC2 returned Cruzain inh Det 2.9%, SARS PLP yeast -4%, Cruzain inh noDet -1%, RE007 growth inh 5%, Lassa entry inh 15%, NS1 inh -2% and MARV entry inh 6%.
Screening CCCc1nc(SCc2ccccc2Cl)n[nH]1 returned Cruzain inh Det 2.2%, StopGo reporter 34%[activator], SARS PLP yeast -6%, Cruzain inh noDet 8%, RE007 growth inh -1%, Lassa entry inh 3%, NS1 inh -69% and MARV entry inh -23%[46.1 µM].
For Cc1ccc(OCc2nnc(SC(C)C(=O)O)n2-c2ccccc2)cc1 (centres undefined) the results were StopGo reporter -10%, SARS PLP yeast 0%, RE007 growth inh 11%, Lassa entry inh 1%[46.1 µM], NS1 inh 14% and MARV entry inh 17%[46.1 µM].
Cc1ccc(N2CC(NS(=O)(=O)c3cc(F)ccc3F)CC2=O)cc1C (centres undefined) was read as StopGo reporter -4%, SARS PLP yeast 10%, RE007 growth inh 7%, Lassa entry inh 14% and MARV entry inh 6%.
CC(C)c1ccc(NC(=O)CCn2c(=O)c3cccn3c3ccccc32)cc1 was read as Cruzain inh Det -7.4%, StopGo reporter 0%, Cruzain inh noDet 28% and Lassa entry inh inconclusive.
Screening O=C(NC1CCCCC1)C(c1ccco1)N(C(=O)c1csnn1)c1ccc(Cl)cc1 (centres undefined) returned StopGo reporter 11%, SARS PLP yeast 9%, RE007 growth inh -15%, Lassa entry inh inconclusive, NS1 inh 12% and MARV entry inh -28%[46.1 µM].
`CCOc1ccc(-n2c(-c3ccccc3)c[n+]3c2CCCCC3)cc1` gave Cruzain inh Det 0.0%, StopGo reporter inconclusive, SARS PLP yeast 9%, Cruzain inh noDet 1%, RE007 growth inh 3% and NS1 inh 2%.
`Cc1cc(C)n2nc(SCC(=O)N(C(C)C)C(C)C)nc2n1` gave Cruzain inh Det -2.5%, StopGo reporter -15%, SARS PLP yeast 4%, Cruzain inh noDet 0%, RE007 growth inh 3%, Lassa entry inh -1%, NS1 inh 3% and MARV entry inh 16%.
For NC(=S)Nc1cc(Cl)ccc1Cl the results were StopGo reporter 1%, SARS PLP yeast 0%, RE007 growth inh 0%, NS1 inh 5% and MARV entry inh 2%.
`O=C(/C=C/c1cccc([N+](=O)[O-])c1)NCc1ccc2c(c1)OCO2` gave Cruzain inh Det -2.9%, StopGo reporter -10%, SARS PLP yeast -12%, Cruzain inh noDet 3%, RE007 growth inh 6%, Lassa entry inh 7%, NS1 inh 2% and MARV entry inh 2%.
`O=C(C1CC1)N1N=C(c2cccc(Br)c2)CC1(O)C(F)(F)F` (centres undefined) gave StopGo reporter 0%, SARS PLP yeast -13%, RE007 growth inh -27%, Lassa entry inh 0%, NS1 inh -148% and MARV entry inh 0%.
Screening CC(C)Cn1c(O)c2ccc(C(=O)N=NC(=O)c3cccnc3)cc2c1O returned Cruzain inh Det -1.4%, StopGo reporter inconclusive, SARS PLP yeast -4%, Cruzain inh noDet 5%, RE007 growth inh 0%, Lassa entry inh 8%, NS1 inh 13% and MARV entry inh inconclusive.
Screening COc1ccc(S(=O)(=O)N2CCCCCC2)cc1C(=O)N(C)Cc1ccc(F)cc1 returned StopGo reporter -26%, RE007 growth inh 6%, Lassa entry inh inconclusive and MARV entry inh inconclusive.
`O=C(CSc1ccc2c(c1)OCCO2)NC(=O)NC1CCCC1` gave Cruzain inh Det -4.8%, StopGo reporter inconclusive, SARS PLP yeast 0%, Cruzain inh noDet -2%, RE007 growth inh -7%, Lassa entry inh -5%, NS1 inh -9% and MARV entry inh -1%.
Screening Cc1cccn2c(=O)c3cc(C(=O)NC(C)c4ccccc4)c(=N)n(CCCO)c3nc12 (centres undefined) returned Cruzain inh Det -23%, StopGo reporter -26%, Cruzain inh noDet 13%, Lassa entry inh inconclusive and MARV entry inh -27%[46.1 µM].

Pulled one by one from the entries so far, 2 records:
`O=C(C1CC1)N1N=C(c2cccc(Br)c2)CC1(O)C(F)(F)F` (centres undefined) gave StopGo reporter 0%, SARS PLP yeast -13%, RE007 growth inh -27%, Lassa entry inh 0%, NS1 inh -148% and MARV entry inh 0%.
Screening CC(C)Cn1c(O)c2ccc(C(=O)N=NC(=O)c3cccnc3)cc2c1O returned Cruzain inh Det -1.4%, StopGo reporter inconclusive, SARS PLP yeast -4%, Cruzain inh noDet 5%, RE007 growth inh 0%, Lassa entry inh 8%, NS1 inh 13% and MARV entry inh inconclusive.

Going on with the list.
Screening COc1ccc(S(=O)(=O)N2CCN(c3ccc4nnc(-c5ccccc5)n4n3)CC2)cc1 returned Cruzain inh Det -3.4%, StopGo reporter inconclusive, SARS PLP yeast 3%, Cruzain inh noDet inconclusive, RE007 growth inh 4%, NS1 inh 1% and MARV entry inh -5%.
For CC(NC(=O)c1ccco1)C(=O)N1CCc2ccccc2C1 (centres undefined) the results were Cruzain inh Det 3.8%, StopGo reporter 7%, SARS PLP yeast 2%, Cruzain inh noDet 11%, RE007 growth inh -9%, Lassa entry inh 16%, NS1 inh -3% and MARV entry inh 8%.
For O=C(NC(=S)Nc1ccc(NC(=O)c2cccs2)cc1)c1cc2ccccc2o1 the results were Cruzain inh Det -12%, StopGo reporter -30%, SARS PLP yeast -6%, Cruzain inh noDet inconclusive, RE007 growth inh -3%, Lassa entry inh -5%, NS1 inh 11% and MARV entry inh inconclusive.
`CN(c1ccc(C(=O)Nc2ccc(Cl)cn2)cc1)S(=O)(=O)c1ccccc1` gave StopGo reporter inconclusive, SARS PLP yeast -2%, RE007 growth inh 5% and NS1 inh -48%.
Screening CC(NC(=S)Nc1cccc(C(F)(F)F)c1)C(C)(C)C (centres undefined) returned StopGo reporter inconclusive, SARS PLP yeast -3%, RE007 growth inh 7%, Lassa entry inh 10µM*, NS1 inh -11% and MARV entry inh inconclusive.
For COc1ccc(OC)c(/C=C2\SC(=S)N(NS(=O)(=O)c3ccccc3)C2=O)c1 the results were StopGo reporter -23%, SARS PLP yeast -1%, RE007 growth inh -14% and NS1 inh -9%.
`O=C(CN1CCN(S(=O)(=O)c2cc(Br)ccc2Br)CC1)NCc1ccccc1Cl` gave StopGo reporter inconclusive, RE007 growth inh 2%, Lassa entry inh -24% and MARV entry inh -7%.
For O=S(=O)(CCOc1ccccc1)N1CCOCC1 the results were Cruzain inh Det -0.5%, StopGo reporter 32%[activator], SARS PLP yeast -4%, Cruzain inh noDet 12%, RE007 growth inh 2%, Lassa entry inh 3%, NS1 inh 0% and MARV entry inh inconclusive.
`COc1ccccc1CNC(=O)COC(=O)c1nccnc1N` gave StopGo reporter -25%, SARS PLP yeast 8%, RE007 growth inh 9% and NS1 inh 20%.
Screening S=c1[nH]nc(COc2ccccc2)n1/N=C/c1cccc(Br)c1 returned StopGo reporter -12%, SARS PLP yeast 0%, RE007 growth inh 11%, Lassa entry inh inconclusive, NS1 inh 5% and MARV entry inh inconclusive.
For COc1cccc(OC)c1C(=O)Nc1cccc(C(=O)Nc2cccc(C(=O)O)c2)c1 the results were StopGo reporter -20%, SARS PLP yeast 0%, RE007 growth inh -18% and NS1 inh 4%.
`CCOc1ccc(CCNC(=O)c2ccc(Cl)c(S(=O)(=O)N3CCOCC3)c2)cc1OCC` gave StopGo reporter inconclusive, SARS PLP yeast 5%, RE007 growth inh -2%, Lassa entry inh -22% and MARV entry inh inconclusive.
For Cc1ccccc1N1CCN(C(=O)c2ccccc2NC(=O)c2ccccc2C(=O)O)CC1 the results were StopGo reporter -15%, SARS PLP yeast -2%, RE007 growth inh 6%, Lassa entry inh 4%, NS1 inh 3% and MARV entry inh 6%[46.1 µM].
Cn1nnnc1SCCCNCc1cc(Cl)ccc1OCc1ccc(F)cc1 was read as Cruzain inh Det -4.5%, StopGo reporter -29%, Cruzain inh noDet 4%, Lassa entry inh -4%[46.1 µM] and MARV entry inh inconclusive.
`CCC(C(=O)NCC1CCCO1)N(Cc1ccc(F)cc1)C(=O)CNS(=O)(=O)c1ccccc1` (centres undefined) gave StopGo reporter 23%, SARS PLP yeast 1%, RE007 growth inh 3%, Lassa entry inh -2%, NS1 inh -9% and MARV entry inh -3%[46.1 µM].
For O=C(OCC(=O)N1CCCC1)c1cncc(Br)c1 the results were Cruzain inh Det 4.8%, StopGo reporter 12%, SARS PLP yeast 0%, Cruzain inh noDet -16%, RE007 growth inh -12%, Lassa entry inh -5%, NS1 inh -3% and MARV entry inh 12%.
For CC(C)c1cnc2c(c1SCC(=O)c1ccccc1)c(=O)n(C)c(=O)n2C the results were Cruzain inh Det -2.1%, StopGo reporter -28%, Cruzain inh noDet -13% and Lassa entry inh -24%[46.1 µM].
